# Assay outcomes: PubChem BioAssay, Johns Hopkins Ion Channel Center
# KCNQ2 inh – KCNQ2 potassium channel inhibitors, primary screen, cell-based, CHO-K1, FluxOR thallium flux, B-score (AID 2156) | Potassium voltage-gated channel subfamily KQT member 2 (Rattus norvegicus), O88943 | 20 min; hits give low values; only compounds with negative scores are shown here; some inactives read as strong as hits | B-score at 10 µM | 1.1% of 310,000 active;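 active means fluorescence ratio B-score at most minus 3 library SDs, with starting brightness B-score within 2 library SDs, cut at about -5.5 in these data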
# Target sequence (O88943 whole entry, looked up): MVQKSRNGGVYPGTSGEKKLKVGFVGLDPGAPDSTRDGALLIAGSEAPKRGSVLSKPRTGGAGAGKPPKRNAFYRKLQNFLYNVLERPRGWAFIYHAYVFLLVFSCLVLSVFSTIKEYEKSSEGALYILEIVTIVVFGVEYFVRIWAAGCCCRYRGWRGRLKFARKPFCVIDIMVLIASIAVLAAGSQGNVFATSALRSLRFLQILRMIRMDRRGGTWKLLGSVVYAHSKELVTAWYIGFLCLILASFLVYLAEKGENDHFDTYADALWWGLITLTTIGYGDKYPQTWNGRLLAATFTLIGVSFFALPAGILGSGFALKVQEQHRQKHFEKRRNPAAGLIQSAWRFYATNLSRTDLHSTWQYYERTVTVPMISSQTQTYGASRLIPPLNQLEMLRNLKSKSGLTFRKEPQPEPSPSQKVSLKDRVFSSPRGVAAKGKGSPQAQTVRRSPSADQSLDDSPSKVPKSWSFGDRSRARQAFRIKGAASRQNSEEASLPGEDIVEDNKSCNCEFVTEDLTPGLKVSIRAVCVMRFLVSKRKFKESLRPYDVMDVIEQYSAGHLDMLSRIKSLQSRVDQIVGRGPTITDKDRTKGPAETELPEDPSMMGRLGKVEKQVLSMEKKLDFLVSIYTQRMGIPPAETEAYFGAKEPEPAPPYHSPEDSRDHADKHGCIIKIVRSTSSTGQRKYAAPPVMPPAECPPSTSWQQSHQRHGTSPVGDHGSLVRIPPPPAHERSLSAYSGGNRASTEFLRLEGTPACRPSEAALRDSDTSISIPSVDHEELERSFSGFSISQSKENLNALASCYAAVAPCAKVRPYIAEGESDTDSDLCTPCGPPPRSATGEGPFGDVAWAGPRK
# KCNQ2 inh baseline – further read-out of KCNQ2 inh, marked with its call; B-score; measured here: initial fluorescence intensity artifact check;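 brightness before thallium and not channel activity; 0 = typical well and far values either way flag optical interference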
# Numbers without * were called inactive; i = inactive. These rows are one share of the data; count on the stated rates, not on these rows.
SMILES,KCNQ2 inh,KCNQ2 inh baseline
Cc1[nH]nc(Nc2ccccc2)c1[N+](=O)[O-],i,0.19
O=C(CNC(=O)c1ccccc1)N/N=C/c1ccc([N+](=O)[O-])o1,i,-1.86
CCOC(=O)c1cc2c(ccn2C)n1Cc1ccccc1C,i,0.24
O=C(Cn1cc(F)c(=O)[nH]c1=O)NCCO,i,-0.12
COCCNC(=O)/C(C#N)=C/c1ccc(SC)cc1,i,-0.22
O=C(NCC1CCCN(C(=O)c2cccnc2)C1)c1ccc(-c2ccccc2)cc1 (stereo not drawn),i,-0.2
CC(O)Cn1nc([N+](=O)[O-])nc1N (stereo not drawn),i,2.19
Cc1cccc(N2C(=O)CN(Cc3cccs3)C2=S)c1,i,0.97
c1ccc(Nc2cc(-c3ccccc3)nc3ncnn23)cc1,i,-0.27
CSc1ccccc1NC(=O)CN(C)C(C)C(=O)NC(=O)NC1CCCCC1 (stereo not drawn),i,-0.87
Brc1cc2c(cc1Br)OCCOCCOCCOCCO2,i,1.92
COc1ccc(NC(=O)c2ccc3c(SCC(=O)O)c4c(nc3c2)CCCC4)cc1Cl,i,-0.14
CCOc1ccc(/C=N/NC(=O)c2cc(-c3ccccc3)nc3ccccc23)cc1O,i,1.02
CCOc1cc2[nH]c(=O)n(CCc3ccc(OC)c(OC)c3)c(=O)c2cc1OCC,i,0.31
CN(C)CCCN(C(=O)CCOc1ccccc1)c1nc2c(F)cccc2s1,i,-1.95
CCOP(=O)(OCC)C(NC(=O)Nc1ccc(Cl)cc1)C(N)=O (stereo not drawn),i,2.69
Cc1cccc(-c2nnc(SCC(=O)Nc3cc(C)on3)n2C)c1,i,-0.88
CCOC(=O)C1=C(C)Nc2ncnn2C1c1cc(Br)ccc1F (stereo not drawn),i,0.17
O=C(NCCc1ccc(Cl)cc1)C(=O)Nc1cc2c3c(c1)CC(=O)N3CCC2,i,-0.59
Cc1nn(C)c(C)c1C1C(C#N)=C(N)OC2=C1C(=O)CCC2 (stereo not drawn),i,1.55
O=C(c1ccc(C(=O)N2CCN(c3ccccc3F)CC2)nc1)N1CCN(c2ccccc2F)CC1,i,0.03
COc1ccccc1N1CCN(C(=O)CCn2c(=O)[nH]c3ccccc3c2=O)CC1,i,-0.37
COc1cccc(NC2=NC3(CCCCC3)N=C(N)N2)c1,i,-0.13
COc1cccc(CN2CCNC(=O)C2CC(=O)N(C)CC2CCOCC2)c1 (stereo not drawn),i,1.42
COCCNC(=O)CN(C(=O)CCC(=O)Nc1ccccn1)c1ccccc1OC,i,-0.8

# Some values from above.
# For KCNQ2 inh baseline, O=C(c1ccc(C(=O)N2CCN(c3ccccc3F)CC2)nc1)N1CCN(c2ccccc2F)CC1 reads 0.03
# For KCNQ2 inh baseline, Cc1[nH]nc(Nc2ccccc2)c1[N+](=O)[O-] reads 0.19
# For KCNQ2 inh baseline, O=C(NCC1CCCN(C(=O)c2cccnc2)C1)c1ccc(-c2ccccc2)cc1 (stereo not drawn) reads -0.2
# For KCNQ2 inh baseline, CCOc1ccc(/C=N/NC(=O)c2cc(-c3ccccc3)nc3ccccc23)cc1O reads 1.02

# (further entries)
SMILES,KCNQ2 inh,KCNQ2 inh baseline
O=C1C(Cl)=C(Nc2ccccc2)C(=O)c2ccccc21,i,-0.11
Cc1cccc(OCC(=O)Nc2ccccc2N2CCCCC2)c1,i,-0.77
CC(C)C(=O)Nc1cccc(S(=O)(=O)c2cccc(NC(=O)C(C)C)c2)c1,i,1.1
CCN(CC(=O)NCc1ccc(Cl)cc1)C(=O)c1oc2ccccc2c1C,-7*,-2.24*
COc1ccc(CCNC(=O)c2cc(S(=O)(=O)N(C)c3ccccc3)ccc2Cl)cc1,i,0.54
O=C(NCC(c1cccs1)N1CCOCC1)C1CCN(S(=O)(=O)c2cccc(C(F)(F)F)c2)CC1 (stereo not drawn),i,0.69
OCCC1CN(Cc2ccccc2-c2ccco2)CCN1Cc1ccccc1 (stereo not drawn),i,-1.77
CCOC(=O)/C(C#N)=C/c1c(N2CCN(Cc3ccc4c(c3)OCO4)CC2)nc2c(C)cccn2c1=O,i,-0.39
COc1ccc(NC(=O)CSc2nnc3ccc(-c4cccnc4)nn23)c(OC)c1,i,-0.07
COc1ccc(N(C(=O)c2ccc(Br)o2)C2C=CS(=O)(=O)C2)cc1 (stereo not drawn),i,0.67
CC(=O)Nc1ccc(S(=O)(=O)Nc2ccc(N3CCOCC3)cc2)cc1,i,1.26
COc1ccccc1C(=O)NC(=S)/C=C1/N(C)c2ccccc2C1(C)C,i,0.74
COc1ccc(C(=O)OCC(=O)Nc2cc(S(=O)(=O)N3CCOCC3)ccc2N2CCCC2)cc1,i,-1.5
Cc1ccc(C)c(NC(=O)c2cc(S(=O)(=O)N3CCCCC3)c[nH]2)c1,i,0.62
COc1cc2c(C)nc(C)c(C#N)c2cc1OC,i,0.91
CCCn1nc(C(=O)OCC(=O)c2ccc3c(c2)NC(=O)CO3)c2ccccc2c1=O,i,0.08
Cc1cccc(C(=O)Nc2nccs2)c1[N+](=O)[O-],i,0.08
OC1(c2ccccc2F)CCN(Cc2nnc(-c3ccccc3)o2)CC1,i,1.12
NC1=NC(=O)C2(COC(c3ccncc3)OC2)S1 (stereo not drawn),i,0.28
N#CCC(=O)Nn1c(=S)[nH]c2ccccc2c1=O,i,0.49
Cc1ccccc1-n1nc(C(=O)O)c(C)c(C#N)c1=O,i,2.1
CN(c1ccccc1)S(=O)(=O)c1ccc(C(=O)OCC(=O)NCc2ccco2)cc1,i,-0.01
CN(CCc1cnn(C)c1)C(=O)C1CCC(=O)N(CC2CCCCC2)C1 (stereo not drawn),i,-2.07
Cc1ccc2nc(C3CCN(CC(=O)N4CCCCCC4)CC3)[nH]c2c1,i,0.18
COc1ccc(CCN(C)C2CCCN(S(=O)(=O)c3ccccc3F)C2)cc1OC (stereo not drawn),i,0.73
# Continuation:
SMILES,KCNQ2 inh,KCNQ2 inh baseline
Cc1cc(C)cc(-n2nnnc2SCC(=O)Nc2nc(-c3ccc(F)cc3)cs2)c1,i,0.51
COC(=O)CNc1cccc(C(F)(F)F)c1,i,0.34
Cc1nnc(SCC(=O)Nc2nccs2)s1,i,0.09
Cc1ccccc1CN(C)CCc1ccccn1,i,-0.13
CC(C)(C)OC(=O)N1CCC(C(=O)N2CCCCCC2)CC1,i,0.35
CN(C)C(=O)c1c2c(nc3ccccc13)-c1ccccc1CC2,-6.14*,0.15*
C=CCn1c(COc2ccc(F)cc2)nnc1SCC(=O)NC1CCCC1,i,0.47
Brc1c(CSc2nc3ccccc3o2)nc2ncccn12,i,-0.76
Cc1cccc(NC(=O)c2ccc(S(=O)(=O)N3CC(C)OC(C)C3)cc2)n1 (stereo not drawn),i,-1.37
CCN(CC(=O)Nc1ccc(C(=O)Nc2ccc(OC)cc2)cc1)Cc1nc2ccccc2c(=O)[nH]1,i,0.04
CC1(C)Cc2cccc(OCC(=O)N3CCN(c4ccc(F)cc4)CC3)c2O1,i,-0.02
O=C(C[n+]1ccccc1)Nc1ccc(Oc2ccccc2)cc1,i,0.02
Cc1cc(C)n2nc(SCC(=O)NC3CCCC(C)C3C)nc2n1 (stereo not drawn),i,0.49
COc1ccc(C(=O)C2CCCN(Cc3cnc(N4CCCC4)s3)C2)cc1OC (stereo not drawn),i,0.07
O=C(COC(=O)c1ccccc1Nc1ccccc1F)c1ccccc1,i,0.21
Cc1ccccc1Cn1cnc2c(oc3ccccc32)c1=O,i,-0.44
Clc1ccccc1CSC1=NCCCN1,i,1.33
CCC1CCCCN1C(=S)NC(=O)c1ccc(F)c(S(=O)(=O)N2CCOCC2)c1 (stereo not drawn),i,-2.05
Cc1ccccc1C(=O)NC(CC(C)C)C(=O)OCc1cc(=O)n2cc(Br)ccc2n1 (stereo not drawn),i,-2.41
CN(C)CC(CCCCC(CN(C)C)C(=O)c1ccccc1)C(=O)c1ccccc1 (stereo not drawn),i,0.31
Cc1cccc(NS(=O)(=O)c2cccc(C(=O)NCC(c3ccco3)N3CCCCC3)c2)c1 (stereo not drawn),i,-1.23
O=c1[nH]nc(Sc2ncnc3sccc23)n1CCc1ccccc1,i,3.59
CCN(CC(=O)NCc1cccs1)C(=O)CCC(=O)c1ccc(F)cc1,i,1.42
Cc1ccccc1N1CCN(S(=O)(=O)c2nnc(NC(=O)CC(C)C)s2)CC1,i,0.01
COC(=O)c1ccc(CNC(=O)COC(=O)C23CC4CC(CC(C4)C2)C3)cc1,i,-0.46
# More entries follow.
SMILES,KCNQ2 inh,KCNQ2 inh baseline
COCC(=O)Nc1ccc(S(=O)(=O)Nc2nccs2)cc1,i,-0.95
O=C(NCCc1ccc(Cl)cc1)C1CC(=O)N(C2CCCC2)C1 (stereo not drawn),i,0.5
CC1CCN(Cc2cc(=O)oc3ccc4ccccc4c23)CC1,i,2.17
CC(C)Cn1nc(NC(=O)c2ccco2)c2cc3ccccc3nc21,i,-2.44
CN1CCc2nc(SCCOc3ccccc3)c(C#N)cc2C1,i,0.85
Cc1c(Cl)cccc1NC(=O)CC(Cc1ccccc1)C(=O)O (stereo not drawn),i,0.64
CCCc1cc(=O)oc2cc(OCC(=O)Nc3cc(C)on3)ccc12,i,1.09
CS(=O)(=O)NCC(c1cccnc1)N1CCN(c2ccccc2F)CC1 (stereo not drawn),i,2.2
CCCCn1c(N)c(N(CCOC)C(=O)c2cc(-c3ccco3)nc3ccccc23)c(=O)[nH]c1=O,i,0.05
c1ccc(COc2cccc(CNCc3ccccn3)c2)cc1,i,-0.47
CCN1CCN(CC(O)COc2ccc(C(C)=O)cc2)CC1 (stereo not drawn),i,1.67
CC(C)CCN(CCC(C)C)C(CO)(CO)CO,i,0.87
Cc1ccccc1-c1ccccc1N,i,0.9
COc1cc(CNCCc2ccccc2)cc(Cl)c1OCc1ccccc1,-7.22*,0.19*
COc1cc(C2c3c(oc4ccccc4c3=O)C(=O)N2c2ccc(C)cn2)ccc1O (stereo not drawn),i,-2.86
O=C(NCc1n[nH]c(=S)n1-c1cccc(Cl)c1)c1ccc(S(=O)(=O)N2CCCCC2)cc1,i,-1.02
Cc1nn(Cc2ccccc2Cl)c(C)c1NC(=O)Cn1nc([N+](=O)[O-])c(Cl)c1C,i,0.33
c1csc(-c2csc3nc(CN4CCOCC4)nc(NCc4ccc5c(c4)OCO5)c23)c1,i,0.89
Cc1cc2sc3nc(=O)n(-c4ccccc4)c(=O)n3c2cc1C,i,1.98
CC(C)(C)OC(=O)NCCCCCC(=O)N/N=C/c1coc2ccccc2c1=O,i,-0.02
CN(C)CCCN(C(=O)c1ccc(S(=O)(=O)N2CCc3ccccc32)cc1)c1nc2c(Cl)cccc2s1,i,1.66
CC(C)[C@H](NC(=O)N1CCn2c1nc1ccccc12)C(=O)NCCc1ccccc1,i,0.3
Cn1c(=O)c2c(ncn2CC(=O)Nc2cccc(S(=O)(=O)Nc3ccccc3F)c2)n(C)c1=O,i,0.69
O=C(NCCCn1ccnc1)/C(=C\c1ccc(Br)cc1)NC(=O)c1ccccc1,i,2.17
CCn1c(=O)c2sccc2n2c(CCCC(=O)NC3CCN(Cc4ccccc4)CC3)nnc12,i,-0.05

# One compound at a time, from the list above. Order of values: KCNQ2 inh	KCNQ2 inh baseline
# Cc1c(Cl)cccc1NC(=O)CC(Cc1ccccc1)C(=O)O (stereo not drawn) as listed: i	0.64
# CCn1c(=O)c2sccc2n2c(CCCC(=O)NC3CCN(Cc4ccccc4)CC3)nnc12 as listed: i	-0.05
# c1ccc(COc2cccc(CNCc3ccccn3)c2)cc1 as listed: i	-0.47
# CCN1CCN(CC(O)COc2ccc(C(C)=O)cc2)CC1 (stereo not drawn) as listed: i	1.67

# (more compounds)
SMILES,KCNQ2 inh,KCNQ2 inh baseline
COc1ccc(NC(=O)Nc2nc3ccccc3s2)cc1,i,-1.14
Fc1ccc(Br)cc1C1C=C(c2ccc(Br)s2)Nc2ncnn21 (stereo not drawn),i,6.3
CCOC(=O)c1ccccc1OC(=O)CS(=O)c1ccccc1[N+](=O)[O-] (stereo not drawn),i,-0.24
COc1ccc(NS(=O)(=O)c2cc(NC(=O)c3ccc(=O)[nH]c3)ccc2N2CCCC2)cc1,i,1.48
COc1ccc(-n2c(N)cc(=O)[nH]c2=O)cc1,i,3.12
Cn1nnc2cc(C(=O)NC(C)(C)C)ccc21,i,1.52
O=C(c1cccs1)N(CC1CCCO1)c1nc(-c2ccccc2)cs1 (stereo not drawn),i,0.03
Cc1cccc2c3c([nH]c12)C(=O)CC(C)(C)S3,i,0.59
O=C(CC1NCCc2ccccc21)Nc1ccc(Cl)cc1 (stereo not drawn),i,-0.12
CC1C(=O)NC(=O)C1c1ccccc1 (stereo not drawn),i,0.63
NC(=O)c1cccc2ccccc12,i,2.55
C[C@H]1CCC(=O)N([C@H](COc2ccccc2)Cc2ccccc2)CC1,i,-2.07
COc1cccc(-c2nc(C(N)=O)c3[nH]c(=O)n(-c4ccccc4)c3n2)c1OC,i,1.57
O=C1CCN(S(=O)(=O)c2ccccc2)CCN1CCOCc1ccc(F)cc1,i,2.85
Cc1ccc(NC(=O)CS(=O)CC(=O)N(CC(=O)NC2CCCC2)c2cc(C)ccc2C)cc1 (stereo not drawn),i,1.51
O=C(c1ccco1)N1CCN(Cc2cc(=O)c(OCc3ccccc3F)co2)CC1,i,1.6
COc1cccc(C(=O)NC2CCCc3c2cnn3-c2cc(C)cc(C)c2)c1 (stereo not drawn),i,-0.04
CC(C)(C)c1ccc(C(=O)CSc2ncn[nH]2)cc1,i,-0.76

# In the list so far, 6 have a nitro group on carbon:
SMILES,KCNQ2 inh,KCNQ2 inh baseline
Cc1[nH]nc(Nc2ccccc2)c1[N+](=O)[O-],i,0.19
O=C(CNC(=O)c1ccccc1)N/N=C/c1ccc([N+](=O)[O-])o1,i,-1.86
CC(O)Cn1nc([N+](=O)[O-])nc1N (stereo not drawn),i,2.19
Cc1cccc(C(=O)Nc2nccs2)c1[N+](=O)[O-],i,0.08
Cc1nn(Cc2ccccc2Cl)c(C)c1NC(=O)Cn1nc([N+](=O)[O-])c(Cl)c1C,i,0.33
CCOC(=O)c1ccccc1OC(=O)CS(=O)c1ccccc1[N+](=O)[O-] (stereo not drawn),i,-0.24
